Source: PubChem BioAssay
MLL AF4-AF9 inh = inhibitors of human MLL-AF4/AF9 interaction; actives 0.47% (n = 350,000); inhibition, % at 10 µM; P42568; AlphaScreen, biotin-AF4 peptide binding to FLAG-AF9;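 active = every replicate reaching a set inhibition limit, whatever the replicate mean, cut at about 25% in these data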;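 also: 0% = plate neutral control median and 100% = total signal loss; the record names both 10 and 1 µM as test concentration; the first replicate is given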
Target sequence (P42568 whole entry, looked up): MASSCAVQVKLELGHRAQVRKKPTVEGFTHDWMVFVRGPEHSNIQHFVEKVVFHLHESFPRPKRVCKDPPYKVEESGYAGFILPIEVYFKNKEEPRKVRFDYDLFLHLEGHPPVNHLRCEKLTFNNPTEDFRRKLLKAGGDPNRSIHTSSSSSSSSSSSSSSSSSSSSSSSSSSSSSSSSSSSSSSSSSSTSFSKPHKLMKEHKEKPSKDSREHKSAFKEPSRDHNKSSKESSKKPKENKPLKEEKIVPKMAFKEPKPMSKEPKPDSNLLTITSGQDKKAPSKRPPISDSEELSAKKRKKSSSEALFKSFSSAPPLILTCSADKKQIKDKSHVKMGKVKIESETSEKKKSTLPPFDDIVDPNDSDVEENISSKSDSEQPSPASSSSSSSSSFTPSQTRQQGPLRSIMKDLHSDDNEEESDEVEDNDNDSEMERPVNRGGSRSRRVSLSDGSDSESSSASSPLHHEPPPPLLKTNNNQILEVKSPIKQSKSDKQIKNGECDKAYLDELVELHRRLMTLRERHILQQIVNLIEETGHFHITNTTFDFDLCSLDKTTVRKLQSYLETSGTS
Ecoli rRNA inh = inhibits bacterial ribosomal RNA function over humanized ribosomes; E. coli WT GFP vs humanized-ribosome RFP mutants, fluorescence, 24 h; stronger effect = lower value; DMSO median 0, no signal -100; GFP signal change (wild-type ribosome), % (test concentration not listed); actives 1.6% (n = 350,000);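 active = significant combined selectivity score with lowered wild-type GFP, culture density cut under 30%, mutant RFP and density less affected; inactive = any of these conditions unmet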; also: one replicate is shown; some compounds called inactive have numbers as strong as hits
Ecoli rRNA inh OD600 = further read-out of Ecoli rRNA inh, marked with its call; OD600 change, %; measured here: OD600 growth;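 optical density of the mix in the first replicate; 0 = DMSO median and -100 = no signal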
Ecoli rRNA inh RFP = recorded beside Ecoli rRNA inh, whose call it bears; RFP signal change, %; measured here: RFP humanized mutant strains;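 first replicate; 0 = DMSO median and -100 = no signal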
* marks the source's active call; other numbers are inactive results; & = joins results of further samples.

SMILES	MLL AF4-AF9 inh	Ecoli rRNA inh	Ecoli rRNA inh OD600	Ecoli rRNA inh RFP
CCC(=O)N1CC2(C1)CN(Cc1cccc(Cl)c1)[C@H](CO)c1c2c2ccc(OC)cc2n1C	5.8	-5.5	-9.0	-1.2
CC(C)NC(=O)N1CC(=O)N2[C@H](CO)[C@@H](c3ccc(C#CCN(C)C)cc3)[C@H]2C1	0.7	4.2	-4.4	0.2
Cc1ccccc1S(=O)(=O)N1CC(=O)N2[C@H](CO)[C@@H](c3ccc(C#CCC(C)C)cc3)[C@H]2C1	-2.4	-3.2	-9.6	6.2
O=C(c1cccc(F)c1)N1CC(=O)N2[C@@H](CO)[C@H](c3ccc(-c4cccnc4)cc3)[C@@H]2C1	-2.6	4.6	7.5	-1.3
O=C(C1CCCCC1)N1CC(=O)N2[C@H](CO)[C@@H](c3ccc(-c4ccccc4F)cc3)[C@H]2C1	4.2	-2.4	-14.9	-0.5
O=C(Cc1ccccn1)N[C@@H]1CC[C@H](CCn2cc(-c3ccc(F)cc3)nn2)O[C@@H]1CO	-2.2	-2.2	0.4	0.7
CC(C)CC#Cc1ccc([C@@H]2[C@@H](CO)N3C(=O)CN(C(=O)NC4CCCC4)C[C@@H]23)cc1	2.9	-47.4	-73.0	-5.9
CC(C)CC#Cc1ccc([C@H]2[C@H]3CN(C(=O)c4cnccn4)CC(=O)N3[C@H]2CO)cc1	5.8	0.1	-11.1	-3.2
O=C(Nc1ccc(F)cc1)N1CC(=O)N2[C@H](C1)[C@H](c1ccc(-c3ccccc3)cc1)[C@@H]2CO	-1.7	-4.8	-53.9	25.2
O=C(Nc1cccc(F)c1)N1CC(=O)N2[C@@H](CO)[C@H](c3ccc(-c4ccc(F)cc4)cc3)[C@@H]2C1	-6.0	-43.6	-67.1	0.8
C[C@@H]1CCCCO[C@@H](CN(C)Cc2ccccc2)[C@H](C)CN([C@@H](C)CO)C(=O)c2cc(NS(=O)(=O)c3ccc(Cl)cc3)ccc2O1	-1.4	6.5	-41.4	33.1
C[C@H]1CCCCO[C@H](CN(C)C(=O)Nc2cccc3ccccc23)[C@@H](C)CN([C@@H](C)CO)C(=O)c2cc(NS(=O)(=O)c3cccs3)ccc2O1	5.2	-5.1	-1.1	-2.3
COc1ccc(CN2CC3(CCN(Cc4ccccn4)CC3)c3c(n(C)c4cc(OC)ccc34)[C@@H]2CO)cc1	17.6	-1.3	-7.5	2.4
C/C=C/c1ccc([C@H]2[C@@H](CO)N(C(=O)COC)[C@H]2CNC(=O)C2CCC2)cc1	-2.9	-0.2	1.2	1.3
CCCC#Cc1ccc([C@@H]2[C@H]3CN(C(=O)Nc4ccc(F)cc4)CC(=O)N3[C@H]2CO)cc1	3.5	-43.5	-65.4	1.5
COc1cccc(NC(=O)C[C@@H]2CC[C@@H]3[C@H](COc4ccc(NC(=O)C5CCCC5)cc4C(=O)N3C)O2)c1	0.6	-1.0	-1.7	1.6
CCS(=O)(=O)Nc1ccc2c(c1)C(=O)N(C)C[C@@H](OC)[C@@H](C)CN(C(=O)C1CCC1)[C@@H](C)CO2	1.3	2.0	1.1	1.1
C=CCCC[C@H]1OC(=O)[C@H](C)NC(=O)[C@H](C(C)C)NC(=O)[C@@H]2CCCN2C(=O)[C@H](Cc2ccccc2)OC(=O)[C@@H](C(C)C)N(C)C(=O)[C@H](C(C)C)NC(=O)C1(C)C	21.5	2.6	7.6	1.8
COCC(=O)N1CC(=O)N2[C@H](C1)[C@H](c1ccc(C#Cc3cccnc3)cc1)[C@@H]2CO	-2.0	-1.0	7.7	-3.1
O=C(C1CCCCC1)N1CC(=O)N2[C@H](C1)[C@H](c1ccc(C#Cc3cccc(F)c3)cc1)[C@@H]2CO	-2.0	-10.9	-47.9	31.1

For convenience, 3 of the compounds above.
SMILES	MLL AF4-AF9 inh	Ecoli rRNA inh	Ecoli rRNA inh OD600	Ecoli rRNA inh RFP
CCC(=O)N1CC2(C1)CN(Cc1cccc(Cl)c1)[C@H](CO)c1c2c2ccc(OC)cc2n1C	5.8	-5.5	-9.0	-1.2
CC(C)NC(=O)N1CC(=O)N2[C@H](CO)[C@@H](c3ccc(C#CCN(C)C)cc3)[C@H]2C1	0.7	4.2	-4.4	0.2
Cc1ccccc1S(=O)(=O)N1CC(=O)N2[C@H](CO)[C@@H](c3ccc(C#CCC(C)C)cc3)[C@H]2C1	-2.4	-3.2	-9.6	6.2

Some of the entries so far, bar-delimited.
compound | MLL AF4-AF9 inh | Ecoli rRNA inh | Ecoli rRNA inh OD600 | Ecoli rRNA inh RFP
C[C@H]1CCCCO[C@H](CN(C)C(=O)Nc2cccc3ccccc23)[C@@H](C)CN([C@@H](C)CO)C(=O)c2cc(NS(=O)(=O)c3cccs3)ccc2O1 | 5.2 | -5.1 | -1.1 | -2.3
COc1ccc(CN2CC3(CCN(Cc4ccccn4)CC3)c3c(n(C)c4cc(OC)ccc34)[C@@H]2CO)cc1 | 17.6 | -1.3 | -7.5 | 2.4

Additional entries.
SMILES	MLL AF4-AF9 inh	Ecoli rRNA inh	Ecoli rRNA inh OD600	Ecoli rRNA inh RFP
O=C(NCC[C@@H]1CC[C@@H](NS(=O)(=O)c2ccc(F)cc2)[C@H](CO)O1)c1ccccc1F	-4.0	-1.3	-6.5	-0.2
COc1cccc(NC(=O)N2CC3(C2)[C@H](c2ccccc2)[C@H](CO)N3C(=O)C2CCC2)c1	-4.7	-0.1	7.5	2.8
C[C@@H]1CN([C@H](C)CO)C(=O)c2cc(NC(=O)c3ccccc3)ccc2O[C@@H](C)CCCCO[C@@H]1CN(C)C(=O)CCCN(C)C	0.8	2.8	1.2	-0.9
O=C1CN(S(=O)(=O)c2ccccc2)C[C@H]2[C@H](c3ccc(C#Cc4ccccc4)cc3)[C@@H](CO)N12	-1.1	2.6	7.1	-1.7
O=C1CN(Cc2ccc(F)cc2)C[C@H]2[C@H](c3ccc(Br)cc3)[C@H](CO)N12	-13.4	3.1	-0.5	1.2
CCCC#Cc1ccc([C@@H]2[C@H](CO)N3C(=O)CN(C(=O)Nc4cc(F)ccc4F)C[C@@H]23)cc1	-1.9	0.8	-25.8	25.5
O=C(C[C@H]1C=C[C@@H](NC(=O)Nc2ccccc2F)[C@H](CO)O1)NCc1ccccc1	-0.6	-2.3	-2.1	-0.5
CCCNC(=O)N1CC2(C1)[C@H](c1ccccc1)[C@H](CO)N2CC1CC1	-2.6	1.1	15.4	-1.3
CCS(=O)(=O)N1CC(=O)N2[C@H](C1)[C@@H](c1ccc(C#CC3CCCCC3)cc1)[C@@H]2CO	8.6	-7.8	-28.0	7.3
C[C@@H](NC(=O)[C@@H]1N[C@@H]2c3ccc(C4=CCCCC4)c(=O)n3C[C@@H]2[C@H]1CO)c1ccccc1	2.1	-9.8	-15.7	3.7
O=C(Nc1cccc(F)c1)N1CC(=O)N2[C@H](CO)[C@H](c3ccc(C#CC4CC4)cc3)[C@@H]2C1	2.1	4.8	3.0	11.4
O=C(Nc1cccc(F)c1)N1CC(=O)N2[C@@H](CO)[C@@H](c3ccc(C#CC4CC4)cc3)[C@@H]2C1	-0.5	0.5	2.2	19.6
CN1[C@@H]2c3ccc(C4=CCCCC4)c(=O)n3C[C@H]1[C@H](CO)[C@H]2C(=O)NCCc1ccccc1	2.3	-8.8	-12.7	-1.8
CC(C)C#Cc1ccc([C@@H]2[C@@H](CO)N3C(=O)CN(C(=O)Cc4ccccc4)C[C@H]23)cc1	0.1	1.1	11.2	1.9
CN1C(=O)c2cc(NC(=O)C3CCC3)ccc2OC[C@@H]2O[C@@H](CC(=O)NCc3ccccc3F)CC[C@H]21	-1.4	4.4	-0.9	0.5
O=C1CN(Cc2ccc(F)cc2)C[C@H]2[C@H](c3ccc(Br)cc3)[C@@H](CO)N12	-8.3	-0.1	-16.9	2.2
CC(C)C#Cc1ccc([C@H]2[C@@H](CO)N3C(=O)CN(C(=O)NC4CCCCC4)C[C@@H]23)cc1	2.3	-2.2	-11.0	1.7
CO[C@@H]1CN(C)C(=O)c2ccc(NC(=O)Cc3ccccc3)cc2OC[C@@H](C)N(C)C[C@H]1C	2.7	0.2	5.2	1.0
O=C(C[C@@H]1CC[C@@H]2[C@H](COC[C@H](O)CN2S(=O)(=O)c2ccccc2)O1)N[C@H]1CCN(Cc2ccccc2)C1	1.2	-6.6	-7.7	-5.9
C[C@H]1CCCCO[C@@H](CN(C)S(=O)(=O)c2ccc(F)cc2)[C@@H](C)CN([C@@H](C)CO)C(=O)c2cc(NS(=O)(=O)c3ccc(Cl)cc3)ccc2O1	-0.4	-1.0	3.0	1.8
CCS(=O)(=O)N1[C@H](CO)[C@H](c2ccccc2)[C@H]1CN(C(C)=O)C1CCCC1	-1.0	-0.3	-2.8	-1.2
CCNC(=O)[C@H]1[C@H](CO)[C@H]2Cn3c(ccc(-c4cccc(C(=O)N(C)C)c4)c3=O)[C@@H]1N2	-2.9	0.7	0.9	-1.1
CCCNC(=O)C[C@@H]1CC[C@H]2[C@@H](COc3ccc(NC(=O)NCCC)cc3C(=O)N2C)O1	-2.9	1.7	3.3	-1.6
CCCC(=O)N1CC2(CCN(C(=O)NC(C)C)CC2)c2c(n(C)c3cc(OC)ccc23)[C@H]1CO	1.2	-3.7	19.4	-1.9
COc1cccc(-c2ccc([C@@H]3[C@@H](CO)N4C(=O)CN(C(=O)C5CCOCC5)C[C@@H]34)cc2)c1	2.6	1.1	6.9	2.3
C/C=C/c1ccc2c(c1)[C@@H]1[C@@H](CCN1S(=O)(=O)c1cccc(F)c1)[C@H](CO)N2	16.0	-14.1	4.4	-0.1
C[C@H]1CCCCO[C@@H](CN(C)C(=O)c2ccccc2)[C@@H](C)CN([C@@H](C)CO)C(=O)c2cc(NS(=O)(=O)c3cn(C)cn3)ccc2O1	-1.4	-0.1	3.0	-2.1
CN(C)CC(=O)N[C@@H]1CC[C@H](CC(=O)O)O[C@H]1CO	1.5	-1.3	6.0	2.1
O=C(O)C[C@@H]1C[C@@H]2c3cc(NC(=O)c4cccnc4)ccc3O[C@@H]2[C@@H](CO)O1	-3.5	3.4	10.0	-0.7
COc1ccc2c3c([nH]c2c1)[C@@H](CO)N(Cc1ccccc1F)CC31CN(CC2CC2)C1	21.4	4.6	6.6	3.6
O=C1CNC[C@H]2[C@@H](c3ccc(C#CC4CCCC4)cc3)[C@@H](CO)N12	-0.4	-1.4	-12.3	-0.8
CC(C)c1cn(CC[C@@H]2CC[C@H](NC(=O)C3CCOCC3)[C@H](CO)O2)nn1	-1.2	2.5	3.5	0.4
CN(C)C(=O)c1cccc(-c2ccc([C@@H]3[C@@H](CO)N4C(=O)CN(C(=O)C5CCC5)C[C@@H]34)cc2)c1	-2.2	5.5	4.2	1.3
COc1ccc(-c2ccccc2[C@@H]2[C@@H](CO)N(C(=O)NC3CCCC3)[C@H]2C#N)cc1	2.3	6.4	-22.6	0.6
O=C(C1CCCC1)N1CC(=O)N2[C@H](CO)[C@H](c3ccc(-c4cccnc4)cc3)[C@H]2C1	-1.5	6.2	7.9	-0.6
CC(=O)NC[C@@H]1[C@@H](c2ccc(-c3cccc(F)c3)cc2)[C@@H](CO)N1C(=O)C1CC1	-1.8	-2.7	1.0	1.8
COCC(=O)N1CC(=O)N2[C@H](CO)[C@@H](c3ccc(C#CC4CCCC4)cc3)[C@H]2C1	2.0	1.6	19.4	-9.6
Cc1ccccc1S(=O)(=O)N1CC(=O)N2[C@H](C1)[C@H](c1ccc(C#CCC3CCCC3)cc1)[C@@H]2CO	-0.6	4.2	10.4	-2.0
COc1ccc2c3c([nH]c2c1)[C@H](CO)N(C(=O)CC1CC1)CC31CCN(C(=O)CC2CC2)CC1	-4.0	-0.4	-6.3	-1.8
COc1cccc(NC(=O)N[C@H]2C=C[C@H](CC(=O)N3CCOCC3)O[C@H]2CO)c1	-3.4	2.7	4.9	-0.3
CCCNC(=O)N1C[C@@H]2N[C@H](C1)C2c1ccc(-c2ccc(F)cc2)cc1 (stereo partly specified)	-1.2&-1.4	3.0&-5.2	-2.2&-12.7	-0.8&1.6
C[C@@H]1CN([C@H](C)CO)C(=O)c2c(c3ccccc3n2C)-c2ccccc2CO[C@H]1CN(C)C(=O)Nc1ccnc(N2CCOCC2)c1	-3.9	-0.8	-3.1	0.6
CCS(=O)(=O)Nc1ccc2c(c1)C(=O)N(C)[C@H]1CC[C@H](CC(=O)OC)O[C@@H]1CO2	-3.8	3.7	5.3	-1.2
C/C=C/c1ccc([C@@H]2[C@H]3CN(Cc4ccc(F)cc4)CC(=O)N3[C@H]2CO)cc1	6.8	-2.5	-3.9	-0.2
CN(C)CC(=O)Nc1ccc2c(c1)[C@@H]1C[C@@H](CC(=O)N3CCCCC3)O[C@H](CO)[C@@H]1O2	0.8	3.7	9.1	-0.2
O=C(c1ccc(F)cc1)N1CC(=O)N2[C@H](CO)[C@@H](c3ccc(C#Cc4ccc(F)cc4)cc3)[C@H]2C1	0.2	-47.8	-67.8	1.2
O=C(NC1Cc2ccccc2C1)[C@H]1[C@H](CO)[C@H]2Cn3c(ccc(C4=CCCCC4)c3=O)[C@@H]1N2	-0.7	0.7	2.6	2.6
O=C1CN(S(=O)(=O)Cc2ccccc2)C[C@@H]2[C@H](c3ccc(C#Cc4ccc(F)cc4)cc3)[C@@H](CO)N12	-0.5	-1.9	-15.3	23.3
COc1ccc(NC(=O)N2C[C@@H]3N[C@H](C2)C3c2ccc(-c3cccc(F)c3)cc2)cc1 (stereo partly specified)	10.6	-61.3	-74.2	-12.2
CCC(=O)N1CC2(C1)[C@@H](c1ccccc1)[C@H](CO)N2C(=O)NC(C)C	-17.4	1.3	8.5	-1.3
C[C@H]1CN([C@@H](C)CO)C(=O)c2c(c3ccccc3n2C)-c2ccccc2CO[C@@H]1CN(C)Cc1ccc(F)cc1	6.1	-34.6	-29.8	24.0

Some of the compounds tested. The share of hits here may be higher or lower than overall.
